# High-throughput results as filed in PubChem BioAssay.
# gsp antagonist: gsp mutant antagonism; gsp-mutant cells, cAMP HTRF, 30 min; control for the full effect not named in the record; Potency, µM (top dose mostly 76.9 µM), for the others: top-dose activity change, negative = inhibition, actives largely listed as inhibitors; 340,000 compounds, 0.4% hits; AID 624288; active = falling curve of any shape with a large fitted effect; inconclusive = falling curve, mostly with a smaller effect; inactive = flat or rising curve; cell line not stated here;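 note: intracellular cAMP measured with PDE inhibitor Ro 20-1724 present during compound exposure; potency is the fitted concentration of half-maximal effect; % is set by controls: 0 for no effect and ±100 for the full control effect; nearly all actives have a fitted effect of over 65% in size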
#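 Measurement of cellular cAMP by homogeneous time-resolved fluorescence following a 30 min compound exposure at 37C. The PDE inhibitor […] was present throughout; the assay buffer was DPBS with 0.05% BSA and 0.005% Tween 20.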
# TRPV1 potentiator: enhances activation of the human vanilloid receptor TRPV1; potentiation, % at 8.33 µM; Q8NER1; TRPV1-expressing cells, Fluo-8 calcium influx, capsaicin EC20 potentiation; host cell line not named in the record; control for the full effect not named in the record; AID 540277; 320,000 compounds, 0.02% hits; active means potentiation above 80%; inconclusive means 30% to 80%; inactive means below 30%; note: 0% is about no effect
# Target sequence (Q8NER1 whole entry, looked up): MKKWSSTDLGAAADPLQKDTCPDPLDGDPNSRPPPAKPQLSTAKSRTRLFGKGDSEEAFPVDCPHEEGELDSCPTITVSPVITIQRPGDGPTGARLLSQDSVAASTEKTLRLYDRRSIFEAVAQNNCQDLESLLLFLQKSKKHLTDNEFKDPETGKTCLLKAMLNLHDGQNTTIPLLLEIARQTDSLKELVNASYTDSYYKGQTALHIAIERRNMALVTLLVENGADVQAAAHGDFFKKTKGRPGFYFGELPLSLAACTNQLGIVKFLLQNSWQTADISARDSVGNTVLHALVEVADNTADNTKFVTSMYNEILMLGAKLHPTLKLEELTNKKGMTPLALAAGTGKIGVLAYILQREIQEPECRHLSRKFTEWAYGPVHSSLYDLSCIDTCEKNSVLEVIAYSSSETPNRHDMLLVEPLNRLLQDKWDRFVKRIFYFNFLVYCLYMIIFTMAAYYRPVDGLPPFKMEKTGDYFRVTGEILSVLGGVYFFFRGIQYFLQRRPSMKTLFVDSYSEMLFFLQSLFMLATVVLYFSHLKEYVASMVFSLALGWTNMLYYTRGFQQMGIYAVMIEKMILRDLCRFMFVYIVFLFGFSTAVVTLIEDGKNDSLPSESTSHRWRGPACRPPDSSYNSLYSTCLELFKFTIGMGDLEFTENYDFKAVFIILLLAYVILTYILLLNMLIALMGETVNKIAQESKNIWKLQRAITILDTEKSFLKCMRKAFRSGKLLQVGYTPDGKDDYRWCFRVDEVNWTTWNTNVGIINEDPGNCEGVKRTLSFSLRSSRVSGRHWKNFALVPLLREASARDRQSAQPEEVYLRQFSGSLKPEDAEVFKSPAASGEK
#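 Cells expressing TRPV1 were dye-loaded with Fluo-8 and read kinetically: 10 s baseline, 3 min after compound (agonist portion), then 2 min after EC20 capsaicin (allosteric enhancer portion). Calcium-bound dye fluorescence at 480/520 nm.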
# TRPML1 inh: human mucolipin-1 channel inhibition; activity change, negative = inhibition, % (concentration not given with the values); Q9GZU1; 390,000 compounds, 0.02% hits; TRPML1-inducible cells, Ca2+ dye fluorescence, FDSS; active compounds read low; inhibition of EC80 agonist-evoked calcium signal; in the data active means activity change below about -50%; inconclusive means about -30% to -50%; inactive means above about -30%;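 note: stimulus is agonist 54-4 at its EC80 concentration; % is set by controls: 0 for no effect and ±100 for the full control effect; the text of the record puts the active cut at -80%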
#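 Tet-induced TRPML1-DL cells loaded with Ca8 no-wash calcium dye were read kinetically on FDSS. Compound addition was followed by EC80 agonist 54-4 (4 uM final); inhibition was read over 110 s.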
# ClpP mod: qHTS Assay for Activators of ClpP; ATP-dependent Clp protease proteolytic subunit (Bacillus subtilis (strain 168)), P80244; purified B. subtilis ClpP, FRET peptide cleavage, 20 min; Potency, µM (doses to about 57.5 µM), for the others: top-dose activity change, negative = active; 340,000 compounds, 1.9% hits; active = well fitted falling curve with a large enough effect; inconclusive = small, poorly fitted or top-dose-only effect; inactive = no such curve, though single readings can be large or run the other way; note: potency is the fitted concentration of half-maximal effect; the source files actives as falling curves though it sought activators and does not explain the sign; nearly all actives have a fitted effect of over 65% in size; many hits overshoot -100%
# Target sequence (P80244 whole entry, looked up): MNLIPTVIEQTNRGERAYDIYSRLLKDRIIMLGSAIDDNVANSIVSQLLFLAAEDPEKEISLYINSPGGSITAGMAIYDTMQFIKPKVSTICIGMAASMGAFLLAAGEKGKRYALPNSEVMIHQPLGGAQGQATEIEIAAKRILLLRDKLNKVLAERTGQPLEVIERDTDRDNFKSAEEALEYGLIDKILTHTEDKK
#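 ClpP 10 microg/mL final, pH 8 Tris/KCl buffer with BSA, glycerol, Tween-20; compound pinned in; FRET-FV substrate; RT 20 min; Ex320/Em430; ΔFRET vs ADEP 5.8 microM, DMSO, no enzyme.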
# gsp agonist: gsp mutant agonism; gsp mutant cells, cAMP HTRF, 30 min; control for the full effect not named in the record; Potency, µM (doses to about 76.9 µM), for inactives: top-dose activation (cAMP increase), hits mostly activators; 340,000 compounds, 0.13% hits; active = well fitted activation curve with a large enough effect; inconclusive = small, poorly fitted or top-dose-only effect, or another doubt; inactive = no such curve, though single readings can be large or run the other way; cell line not stated here;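 note: phosphodiesterase inhibitor Ro 20-1724 added with compounds to block cAMP breakdown; potency is the fitted concentration of half-maximal effect; nearly all actives have a fitted effect of over 60% in size; about a fifth of the inactives were tested at one dose only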
#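 Cells stably selected in G418 were plated at 2000/well, grown 16-24 hr, then given compounds in DMSO with the PDE inhibitor […] (300 uM solution added) for 30 min at 37C; cAMP was read by HTRF.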
# Sfp PPTase inh: blocks B. subtilis Sfp PPTase activity; 310,000 compounds, 3.5% hits; Potency, µM, for inactives: max response, negative = inhibition, most hits filed as inhibitors; Biochemical Sfp PPTase activity, qHTS; active = well fitted inhibition curve with a large enough effect; inconclusive = small, poorly fitted or top-dose-only effect, or another doubt; inactive = no such curve, though single readings can be large or run the other way;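 note: the enzyme is Sfp with the accession as filed and its product quenches rhodamine fluorescence; potency is the fitted concentration of half-maximal effect; 0% = enzyme reaction without inhibitor and -100% = no enzyme wells; top concentration of the series not given in the record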
#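 With Hepes-Na pH 7.6 buffer containing 10 mM MgCl2, Sfp (15 nM) modified BHQ-2-YbbR (12.5 uM) using rhodamine-CoA (5 uM). Two reads 30 minutes apart at 525/598 nm yielded each well's rate.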
# Menin MLL FP FL: inhibitors of human menin-MLL interaction, wild-type MLL peptide; Fluorescence polarization, fluorescein-MLL peptide displacement from menin; FP activity change, % at 61.4 µM; 290,000 tested, under 10 active; AID 1766; inconclusive = falling polarisation curve, or a change in total fluorescence; inactive = total fluorescence flat and polarisation flat or rising; no compound was filed as active; the % refers to the polarisation; negative = inhibition;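 note: % of control where 0% means no effect; inhibitors lower the polarisation; unlabelled MLL peptide was the positive control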
# The depositor's hits bear a star; ? = inconclusive; . = not tested or not shown; [ ] = dose if it differs, or a comment.
# The first 2 entries as a preview:
SMILES,gsp antagonist,TRPV1 potentiator,TRPML1 inh,ClpP mod,gsp agonist,Sfp PPTase inh,Menin MLL FP FL
Cn1c(SCc2nn[nH]n2)nc2c1c(=O)n(Cc1ccccc1Cl)c(=O)n2C,6%,10,10,-0.2%,-31%[inhibitor],22%,0.9
COc1ccc(N2C(=O)N3[C@H](c4cccc(C)c4)[C@@H]4C(=O)N(Cc5ccccc5)C(=O)[C@@H]4[C@]3(Cc3ccccc3)C2=O)cc1,3%,-16,-14,1.2%,.,19%,1.8

# Results (from the top)
SMILES,gsp antagonist,TRPV1 potentiator,TRPML1 inh,ClpP mod,gsp agonist,Sfp PPTase inh,Menin MLL FP FL
Cn1c(SCc2nn[nH]n2)nc2c1c(=O)n(Cc1ccccc1Cl)c(=O)n2C,6%,10,10,-0.2%,-31%[inhibitor],22%,0.9
COc1ccc(N2C(=O)N3[C@H](c4cccc(C)c4)[C@@H]4C(=O)N(Cc5ccccc5)C(=O)[C@@H]4[C@]3(Cc3ccccc3)C2=O)cc1,3%,-16,-14,1.2%,.,19%,1.8
Cc1ccc(Sc2cc(C(=O)NCCCN(C)C)c3ccccc3n2)cc1,17%,-6,1,.,6%[15.4 µM],-16%,-2.1
COCCCNC(=O)c1cc2c(=O)n3cc(C)ccc3nc2nc1NCC1CCCO1 (stereo not given),.,-18,.,.,.,9%,-1.7
CCN(CC)S(=O)(=O)c1ccc2c(c1)oc(=O)n2CC(=O)N(C)C1CCCCC1,5%,-14,-2,-2.8%,-32%[inhibitor],21%,2.5
COCCOC(=O)c1c(C)oc2ccc(OCc3ccccc3)cc12,?,0,6,.,18%[15.4 µM],6%,0.2
CC(C)C(C(=O)NCC1CCCO1)N(CC1CCCO1)C(=O)CNS(=O)(=O)c1ccccc1 (stereo not given),8%,-8,13,.,3%,23%,-2.3
Cc1nnsc1S(=O)c1ccc(F)cc1 (stereo not given),-10%,11,.,0.8%,-23%,-1%,0.9
Cc1ccc(C(=O)N(CC(=O)NC2CCCC2)c2cccc(F)c2)s1,2%,-9,2,-2.9%,-4%[15.4 µM],-1%,-5.5
O=C(CN1c2cccc3cccc(c23)S1(=O)=O)NCc1ccccc1Cl,.,.,3,4.1%,-79%[inhibitor],.,.
O=C(/C=C/Nc1ccc(Br)cc1F)c1ccccc1,4%,-6,7,?,-19%,12%,0.9
CC(C)CC1Nc2ncnc(N3CCN(c4ccccc4)CC3)c2N(Cc2ccc(Br)cc2)C1=O (stereo not given),3%,16,43,-3.9%,34%,.,.
CCC1CCc2sc(C(=O)NCC(c3ccc(OC)cc3)N3CCCC3)cc2C1 (stereo not given),9%,-23,6,-4.1%,-7%,.,.
NC(=O)c1cc(NC(=O)COC(=O)CCCN2C(=O)c3cccc4cccc(c34)C2=O)cc(C(N)=O)c1,5%,.,-2,.,-5%,.,.
CNc1nc2c(c(=O)[nH]c(=O)n2C)n1CCCc1ccccc1,5%,5,15,.,16%,14%,1.1
CC1(C)Cc2c(sc3c2c2ncnn2c2nnc(SCC(=O)NCc4ccco4)n32)CO1,5%,-10,12,-1.1%,?,-2%,3.3
CN1CCc2c(sc3c2C(=O)NC(c2ccccc2)N3)C1 (stereo not given),9%,-14,-24,0.6%,3%[15.4 µM],56µM*,?
CCOc1cc(/C=N\NC(=O)OC(C)(C)C)ccc1OC(=O)c1ccco1,-9%,-3,10,.,11%[15.4 µM],-4%,5.0
c1cc(-c2nnc3sc(C4CCCCC4)nn23)ccn1,9%,-7,-2,1.1%,16%,11%,-0.2
COc1ccccc1NS(=O)(=O)c1cc(NC(=O)Cn2cnc3c2c(=O)n(C)c(=O)n3C)ccc1C,20%,1,-5,1.1%,0%,-14%,1.2
Cn1c(-c2sc3cc(C(F)(F)F)cnc3c2-c2ccccc2)n[nH]c1=S,?,-2,-5,-0.5%,-1%,-10%,2.0
CSCc1cc(N2CCOCC2)nc(SCc2ccc(Cl)cc2Cl)n1,-13%,4,-6,-5.2%,-9%,3%,6.1
COc1cc(OC)c(C(=O)OCC(=O)Nc2ccccc2Cl)cc1OC,-1%,24,12,-2.1%,-10%[15.4 µM],-17%,-7.1
CCN(CC)S(=O)(=O)c1ccc(N2CC(C(=O)NCCc3c[nH]c4ccccc34)CC2=O)cc1 (stereo not given),-16%,5,8,-9.0%,?,.,.
CC(=O)n1cc(/C=N/NC(=O)c2cccc(O)c2)c2ccccc21,-11%,?,-10,0.7%,1%[15.4 µM],12%,-0.9
CCCCOCCCNC(=O)C1c2ccccc2Oc2ccccc21,3%,-12,-4,-6.4%,-22%[15.4 µM],6%,3.1
Cc1ccc(CNC(=O)[C@]2(C)CCC[C@@]3(C)C4CC[C@@]5(C)C[C@]4(CCC32)CC5=O)cc1 (stereo not given in full),-18%,.,3,1.5%,19%,.,.
O=c1c2c3c(sc2ncn1/N=C/c1ccc([N+](=O)[O-])o1)CCCC3,-2%,6,3,-1.3%,-1%,-16%,1.2
COCCCNC(=O)c1ccccc1N(Cc1ccccc1)S(=O)(=O)c1ccccc1,-4%,-5,25,1.9%,1%,7%,1.2
Cc1ccc2[nH]c3c(c2c1)CCN1C(=O)OC(C)(C)C31C (stereo not given),-6%,-21,7,-1.1%,9%[15.4 µM],10%,1.6
COc1ccc(NC(=O)COC(=O)CCNS(=O)(=O)c2ccc(Cl)cc2)cc1,-8%,5,25,-0.9%,-3%,19%,2.6
COc1ccc(NC(=O)c2ccc(C#CC(C)(C)O)cc2)cc1,-11%,6,0,1.2%,-6%,0%,4.3
CC(=O)N1CCN(S(=O)(=O)c2ccccc2)C1c1ccccc1 (stereo not given),-2%,19,-18,-2.6%,-36%[inhibitor],22%,-2.5
N#CC1=C(N)SC(N)=C(C#N)C1c1ccoc1,.,-10,.,.,.,-79%,?
CCc1ccc(N(CC(=O)NC2CCCCC2)C(=O)CCC(=O)Nc2ccccn2)cc1,-16%,10,-10,16µM*,17%[15.4 µM],7%,-2.4
O=c1oc2ccc(Cl)cc2cc1-c1nnc(Nc2cccc(C(F)(F)F)c2)s1,19%,-4,63,0.7%,-13%,12%,?
CC(C)c1ccc(CNc2c([N+](=O)[O-])c(=O)oc3ccccc23)cc1,?,-9,51,0.1%,-30%,14%,1.1
Cc1cccc(N2C(=O)c3cccc4c(N(C)CCO)ccc(c34)C2=O)c1,-12%,0,-1,?,2%,5%,?
COc1ccc(C(=S)N2CCN(S(=O)(=O)c3ccccc3)CC2)cc1,3%,20,17,0.1%,-9%,6%,.
CCn1c(C)c(C(C)=O)c(N2CCN(C(c3ccccc3)c3ccccc3)CC2)nc1=S,-22%,-18,-1,.,-11%[15.4 µM],?,?
O=C(c1cccc(S(=O)(=O)Nc2ccc(Br)cc2)c1)N1CCC1,?,-3,-2,-0.9%,?,14%,.
COc1ccc(CCNC(=O)CS(=O)(=O)c2cn(CC(=O)N3CCCC3)c3ccccc23)cc1OC,-2%,-7,-10,2.1%,5%,5%,3.8
COc1ccc(-c2csc(NC(=O)c3ccccc3S(C)(=O)=O)n2)cc1,-16%,7,26,.,1%[15.4 µM],14%,0.2
COc1ccc(OC)c(NC(=O)CSc2nnc(-c3ccco3)n2-c2ccc(C(=O)O)cc2)c1,5%,12,7,0.1%,25%,56µM*,7.4
CC(C)CNC(C)C(=O)Nc1ccc(S(N)(=O)=O)cc1 (stereo not given),.,5,17,.,5%[15.4 µM],15%,-0.3
O=C(O)CC1SC(N/N=C/c2ccc(Br)cc2)NC1=O (stereo not given),0%,23,0,-0.9%,-29%,24%,-0.4
C/C(=N\OCC(=O)NCC(F)(F)F)c1cc2ccccc2o1,?,-5,11,-1.2%,20%,-2%,4.3
CCCCOC(=O)C1C2C=CC3(CN(CCc4ccccc4)C(=O)C13)O2 (stereo not given),3%,-3,12,0.2%,0%,17%,-0.4
CCC(C)(C)C1CCc2[nH]nc(C(=O)NC(C)C)c2C1 (stereo not given),-12%,-4,-1,-2.6%,?,.,.
CCCCN(CC(O)COc1cccc(C)c1)CC(O)COc1cccc(C)c1 (stereo not given),-3%,4,-8,0.8%,-2%[15.4 µM],5%,4.6
Cc1c(Cl)cccc1NC(=O)c1ccco1,-8%,-3,-7,-1.0%,8%[15.4 µM],15%,0.3
O=C(CSc1ccc2c(c1)OCCO2)NCCc1ccc(Cl)cc1Cl,-8%,-4,-12,1.0%,10%,9%,5.1
Cn1c(C(=O)O)c(CC(=O)NCC2COc3ccccc3O2)c2ccccc21 (stereo not given),-8%,12,21,-25%,-2%,14%,3.9
O=C(COc1ccccc1F)NNC(=O)Cc1ccc(S(=O)(=O)N2CCOCC2)s1,-4%,11,17,1.2%,2%,.,.
C#CCOCCOCCOCCNc1nc(N2CCN(C(=O)CCCCCCCCCCNC(=O)[C@H](CCC(=O)O)n3cc(CCCCCN)nn3)CC2)nc(N2CCN(C(=O)CCCCCCCCCCNC(=O)[C@@H]([C@H](C)O)n3cc(C)nn3)CC2)n1,9%,26,-15,-0.7%,28%,.,.
CCOC(=O)C1CCCN(C(=S)NC(=O)/C=C/c2ccc(F)cc2)C1 (stereo not given),-5%,-12,1,-1.2%,-6%,10%,-2.0
COc1ccc(NC(=S)NCCN2CCC(C)CC2)cc1,-21%,0,0,0.6%,-28%,-28%,0.2
COc1cc(C(=O)NCc2ccc(S(N)(=O)=O)cc2)ccc1OCC(=O)N1CCOCC1,10%,-8,-13,-3.5%,30%,.,.
CCOc1ccc(OCc2ccc(C(=O)N3N=C(C(F)F)CC3(O)C(F)F)o2)cc1 (stereo not given),-15%,8,-4,-3.1%,20%,-17%,2.7
Cc1ccccc1-n1c(C)cc(/C=N/NC(=O)c2ccc(CN3CCOCC3)cc2)c1C,4%,-6,-21,1.7%,3%,12%,0.0
CCN(CC)CCN(C(=O)c1ccc(S(=O)(=O)N2CCOCC2)cc1)c1nc2cc3c(cc2s1)OCCO3,7%,2,6,-1.2%,-62%[inhibitor],8%,.
CCC(=O)c1ccc(OCC(=O)OCC(=O)Nc2ccc(C)c(S(=O)(=O)N3CCCCC3)c2)cc1,-6%,2,18,4.2%,?,.,.
CC(=O)c1ccc(S(=O)(=O)N2CCNCC2)cc1,6%,9,.,-0.9%,1%,-4%,-1.0
